# Beta cell apopt: blocks beta cell apoptosis. INS-1E cytokine-induced death, ATP luminescence, 48 h; percent of positive-control rescue, neutral wells zero. protection from apoptosis, % (no concentration beside the values). AID 435005. hit rate 0.8% among 300,000;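 active = all replicates at 75% or more, or half of them and the mean; inconclusive = half reach 75% but not the mean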;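 note: 0% = cytokine-treated negative control wells and 100% = positive control rescue; higher means more ATP so stronger rescue from cytokine killing; wells of about 40 µL received 100 nL stock; the first replicate is given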
# Ecoli rRNA inh: inhibits bacterial ribosomal RNA function over humanized ribosomes; E. coli WT GFP vs humanized-ribosome RFP mutants, fluorescence, 24 h; stronger effect = lower value; DMSO median 0, no signal -100; GFP signal change (wild-type ribosome), % (test concentration not listed); hit rate 1.6% among 350,000;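 active = significant combined selectivity score with lowered wild-type GFP, culture density cut under 30%, mutant RFP and density less affected; inactive = any of these conditions unmet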; note: one replicate is shown; some compounds called inactive have numbers as strong as hits
# Bfl-1 A1 inh: inhibitors of the anti-apoptotic protein A1, read as caspase activation. MEF A1-2A-BIM cells, Caspase-Glo 3/7 luminescence, 3 h; percent of clofoctol response, vehicle zero. caspase activation, % (concentration not given with the values). hit rate 0.066% among 330,000. AID 2462;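 active = over half of replicate activation scores above 10%, or exactly half above 10 with the replicate mean above 10; inconclusive = replicate mean below 10 yet half the replicates above 10; inactive = over half of replicates below 10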;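 note: wells of about 30 µL received 50 nL stock; many hits fall short of the cut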
# LANA-H2B inh: blocks KSHV LANA binding to histone H2A/H2B; cell-free LANA-H2A/H2B peptide, fluorescence polarization; inhibition, % (concentration not given with the values); hit rate 0.6% among 320,000; Q9QR71; AID 2629; in the data active = inhibition mostly above about 10%, no sharp cut-off; inactive = mostly below about 6.7%;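 note: stock transfer was 7.5 nL into about 10 µL; 0% = median of vehicle wells and 100% = median of positive control wells; one replicate is shown; the record names a cut of 25% in any replicate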
# ALR H2O2 inh: human ALR oxidase inhibition via reduced H2O2; hit rate 3.8% among 290,000; purified ALR, DTT oxidation, H2O2 HRP-luminol luminescence; inhibition, % (concentration not given with the values); P55789;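 active = mean and each replicate at 75% or more; inconclusive = only one of the two met; inactive = neither met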;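 note: stock transfer was 7.5 nL into about 7.5 µL; 0% = neutral wells and 100% = wells with inactivated enzyme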
# Target sequence (P55789 whole entry, looked up): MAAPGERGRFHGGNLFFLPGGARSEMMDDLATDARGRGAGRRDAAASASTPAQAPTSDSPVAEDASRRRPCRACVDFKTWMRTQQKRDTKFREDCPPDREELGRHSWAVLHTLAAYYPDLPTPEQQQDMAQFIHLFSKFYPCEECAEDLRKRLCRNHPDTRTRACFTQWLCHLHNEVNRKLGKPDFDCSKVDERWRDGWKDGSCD
# B2AR ag: human beta-2 adrenergic receptor agonism by FAP; P07550; Am2.2-beta2AR cells, FAP receptor internalization, flow cytometry; reference of the scale not given here; response, % (no concentration beside the values); hit rate 0.43% among 340,000;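 active = response above a set limit, near 3 SD of response in nonfluorescent compounds, cut at about 42% in these data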;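 note: stock transfer was 100 nL into about 11 µL; a reference agonist was the positive control; negative values mostly stem from fluorescent compounds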
# Target sequence (P07550 whole entry, looked up): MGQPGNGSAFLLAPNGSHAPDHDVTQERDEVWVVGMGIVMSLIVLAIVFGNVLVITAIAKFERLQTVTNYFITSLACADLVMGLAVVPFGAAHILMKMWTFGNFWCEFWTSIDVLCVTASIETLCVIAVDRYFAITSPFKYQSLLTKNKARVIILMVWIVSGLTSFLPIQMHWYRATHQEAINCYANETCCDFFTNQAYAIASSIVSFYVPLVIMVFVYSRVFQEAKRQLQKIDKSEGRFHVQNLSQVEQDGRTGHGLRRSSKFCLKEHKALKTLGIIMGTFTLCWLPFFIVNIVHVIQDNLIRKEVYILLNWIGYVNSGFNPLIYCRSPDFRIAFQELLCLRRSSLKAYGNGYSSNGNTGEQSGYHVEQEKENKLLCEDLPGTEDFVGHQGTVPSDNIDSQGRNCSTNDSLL
# Calb FLC: affects C. albicans growth with fluconazole | C. albicans CaCi-2 (fluconazole-resistant clinical isolate) + fluconazole, Alamar Blue growth, 48 h | growth inhibition, % (no concentration beside the values) | hit rate 0.57% among 300,000;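 active = most replicates above 75%; inconclusive = exactly half above 75%; inactive = most below 75%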;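 note: all wells also contain fluconazole at 8 µg/ml as a sub-toxic cotreatment; 0% = median of DMSO wells and 100% = median of geldanamycin control wells; wells of about 8 µL received 7.5 nL stock; the first replicate is given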
# T cruzi inh: T. cruzi replication inhibition. T. cruzi beta-gal in NIH3T3, luminescence, 90 h. inhibition, % (no concentration beside the values). hit rate 1.4% among 300,000;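 active = mean inhibition across valid replicates above about 55%, limit read from the data; inconclusive = mean below that limit but half or more replicates reach it; inactive = mean below it, under half of replicates reach it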;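 note: signal also drops with host cell toxicity which is not excluded here; 0% = plate median of DMSO wells and 100% = zero luminescence signal; higher percent means less beta-gal luminescence so fewer parasites; stock transfer was 50 nL into about 50 µL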
# Ecoli rRNA inh OD600: further read-out of Ecoli rRNA inh, marked with its call; OD600 change, %; measured here: OD600 growth;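 optical density of the mix in the first replicate; 0 = DMSO median and -100 = no signal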
# Ecoli rRNA inh RFP: second read-out of Ecoli rRNA inh, no call of its own (marks repeat the call); RFP signal change, %; measured here: RFP humanized mutant strains;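 first replicate; 0 = DMSO median and -100 = no signal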
# Starred values were filed as active, the others as inactive; ? = inconclusive; . = no result given. Not all compounds are listed; the hit share may differ from the screen's.
# Every second line gives: Beta cell apopt	Ecoli rRNA inh	Ecoli rRNA inh OD600	Ecoli rRNA inh RFP	Bfl-1 A1 inh	LANA-H2B inh	ALR H2O2 inh	B2AR ag	Calb FLC	T cruzi inh
CCN(CC)Cc1c(O)ccc2c(-c3ccccc3)cc(=O)oc12
    .	.	.	.	0.9	1.0	-11	-9	4	5
Cc1ccc2[nH]c3c(=O)n(N)c(=O)[nH]c3c2c1
    -10	.	.	.	0.1	-2.7	.	4	4	-15
O=S(=O)(NCCc1cn2ccccc2n1)c1ccc(F)c(C(F)(F)F)c1
    2	3	6	-1.7	-0.5	0.6	-28	2	-6	-10
Cc1ccc(C(=O)OCc2nnc(-c3ccccc3)o2)o1
    -5	.	.	.	0.4	3.6	.	-1	-2	-18
CCCCN(CCCC)CCCNC(=O)c1ccc2nc(-c3ccccc3NC(C)=O)c(=O)[nH]c2c1
    2	7	11	1.0	0.1	-3.1	.	-9	-16	2
N#Cc1ccccc1OCC(=O)OCC(=O)NC1CCCCCC1
    -1	4	9	-2.6	0.9	7.9	0	-4	.	.
CCN(c1ccccc1)S(=O)(=O)c1ccc(OC)c(NC(=O)c2cccs2)c1
    7	-8	-24	-1.7	-0.4	1.3	5	0	9	32
COC(=O)c1c(-c2ccccc2)c(-c2ccccc2)nn(C)c1=O
    5	-2	-4	-0.9	-1.6	-0.3	2	0	5	2
Cc1nn(CC(=O)N2CCOCC2)c(=O)c2nn(-c3ccccc3)c(C)c12
    0	6	17	-0.4	-0.9	2.0	-6	7	1	-17
COCCOc1ccc(C(F)(F)F)cc1NC(=O)c1ccc(F)cc1
    1	.	.	.	-0.5	-3.2	0	-1	1	-1
Cc1ccc(C(=O)NCCNC(=O)c2ccco2)cc1C
    .	0	-13	11	0.7	0.6	7	-3	2	-2
CCn1cc(C2=NOC(C(=O)O)C2)c(C)n1 (configuration not stated)
    1	.	.	.	-0.2	-3.1	.	4	19	-11
N#Cc1ccccc1NC(=O)COC(=O)COc1ccccc1[N+](=O)[O-]
    -4	22	-4	-2.5	-0.4	-4.9	.	-7	11	-6
CON(C)c1nc(NCC(C)C)nc(OCC#N)n1
    -3	.	.	.	0.3	0.4	-1	-11	1	-10
CC(=O)N(C1=C(O)c2ccccc2C(=O)C1=O)C1CCCCC1
    -2	5	6	-7.0	-0.1	1.4	4	-3	-3	-8
O=C(CN1C(=O)CCC1=O)Nc1ccc(Br)cc1
    -2	.	.	.	0.4	1.8	.	-8	-1	-6
CCOC(=O)c1c(C)[nH]c(C(=O)N(C)Cc2cccc(OC)c2OC)c1C
    -1	5	-12	4.2	1.6	-8.0	-4	3	-1	-8
COc1ccc(S(=O)NC2CCCCC2)c(OC)c1C (configuration not stated)
    -2	.	.	.	-0.2	-1.3	12	-11	3	-14
Cc1cccnc1NC(=O)c1ccc(Cl)c(S(=O)(=O)N2CCCCC2)c1
    -4	0	3	-3.7	0.0	0.5	-10	-4	.	11
COc1cc(OC)cc(-c2nnc(SCC(=O)N(C(C)C)C(C)C)o2)c1
    -2	11	12	-0.8	-0.8	-3.7	-4	2	49	21
O=C(COc1cccc(C(F)(F)F)c1)NNC(=O)Cc1ccc(S(=O)(=O)N2CCOCC2)s1
    -9	2	7	0.7	-0.1	-0.2	-6	0	.	.
CCOc1ccc(S(=O)(=O)Nc2nc3ccccc3nc2-n2ccc(=NC(=O)c3ccccc3C)cc2)cc1
    1	21	-4	7.9	-0.8	3.0	0	-23	-4	-17
c1ccc2c(Nc3ccc4c(c3)OCCO4)c3c(nc2c1)CCCC3
    -3	-12	-29	32	-0.3	0.0	90*	3	-3	44
CCCN(CCC)C(=O)C1CCCN(S(=O)(=O)c2ccc3c(c2)oc(=O)n3C)C1 (configuration not stated)
    -3	-6	0	1.1	-1.8	1.9	-5	-17	-5	13
COC(=O)c1ccn(CSc2cc(Cl)ccc2Cl)n1
    -11	.	.	.	-0.1	.	-5	-4	.	.
COc1ccccc1C(=O)NCC(=O)N/N=C(\C)Cc1ccccc1
    -6	3	10	-2.2	-0.2	5.4	13	-12	9	-5
Cc1cccc(CCNC(=O)CCNS(=O)(=O)c2cc(Br)cnc2N)c1
    -8	-2	-7	-1.5	1.4	1.3	-5	-15	-8	3
Cc1cc(NC(=O)CCC(=O)N(CC(C)C)C(C(=O)NC(C)(C)C)c2ccccc2Cl)no1 (configuration not stated)
    -7	3	6	0.3	0.2	1.7	1	-2	23	-13
COc1ccc(NC(=O)c2cc3ccccc3o2)cn1
    .	1	26	1.2	-4.6	2.1	3	-2	-15	-3
CCN(CC)S(=O)(=O)c1csc(C(=O)NCc2ccccc2)c1
    -6	.	.	.	-0.6	3.8	-3	8	5	15
Cc1c(CN2CCC(n3nccc3NC(=O)C3CCOC3)CC2)[nH]c2ccccc12 (configuration not stated)
    -2	16	16	4.8	-1.0	-30	7	-2	-10	-2
Fc1ccc2nc(Nc3nc4c(F)cc(F)cc4s3)sc2c1
    90*	-18	-20	25	-4.1	1.0	.	11	-10	-21
CCC(=O)NC(NC(=S)Nc1c(C)n(C)n(-c2ccccc2)c1=O)C(Cl)(Cl)Cl (configuration not stated)
    -3	-4	-9	0.7	-0.8	-5.4	-1	-7	4	3
Nc1nc(-c2ccco2)nn1C(=O)c1ccc([N+](=O)[O-])cc1
    -3	8	5	2.9	-0.6	11	-22	11	-4	2
CCOC(=O)C1CCCN(C(=O)C2CCN(C(=O)Nc3ccccc3)CC2)C1 (configuration not stated)
    2	0	-1	-2.1	0.6	-5.4	-3	1	-2	-6
COc1ccc(N2CC(C(=O)Nc3ccc(S(=O)(=O)Nc4nccs4)cc3)CC2=O)cc1 (configuration not stated)
    -4	13	21	2.1	-1.2	2.1	6	2	-3	-14
CCOc1ccc2[nH]c(=O)c(CN(Cc3cccs3)Cc3nnnn3C(C)(C)C)cc2c1
    14	-3	2	4.0	0.0	3.3	-3	-15	9	44
O=C(NNC(=O)c1ccccc1[N+](=O)[O-])c1csc(N2CCOCC2)n1
    -5	10	12	-3.4	0.4	7.6	-3	3	.	-7
CS(=O)(=O)N(CC(=O)NCCSCc1ccco1)c1ccc(Cl)cc1
    -9	1	-2	2.4	0.3	4.8	56	5	0	-2
CCOc1ccc2nc(Cl)c(C3CC(c4ccccc4)=NN3C(=O)c3ccco3)cc2c1 (configuration not stated)
    4	.	.	.	-0.6	6.8	3	.	5	-1

# A portion taken from the entries so far, as a working copy:
# Every second line gives: Beta cell apopt	Ecoli rRNA inh	Ecoli rRNA inh OD600	Ecoli rRNA inh RFP	Bfl-1 A1 inh	LANA-H2B inh	ALR H2O2 inh	B2AR ag	Calb FLC	T cruzi inh
O=C(COc1cccc(C(F)(F)F)c1)NNC(=O)Cc1ccc(S(=O)(=O)N2CCOCC2)s1
    -9	2	7	0.7	-0.1	-0.2	-6	0	.	.
CCOc1ccc(S(=O)(=O)Nc2nc3ccccc3nc2-n2ccc(=NC(=O)c3ccccc3C)cc2)cc1
    1	21	-4	7.9	-0.8	3.0	0	-23	-4	-17

# The list continues:
# Every second line gives: Beta cell apopt	Ecoli rRNA inh	Ecoli rRNA inh OD600	Ecoli rRNA inh RFP	Bfl-1 A1 inh	LANA-H2B inh	ALR H2O2 inh	B2AR ag	Calb FLC	T cruzi inh
Cc1cc(O)c(/C=N/c2ccccn2)c(=O)o1
    -6	7	6	2.4	1.7	-6.6	-1	9	35	-2
O=C(CSc1c2c(nc3cc(Cl)ccc13)CCCC2)NCCN1CCOCC1
    -4	-14	-13	-0.8	-0.7	-7.7	1	-13	2	27
Cc1ccccc1-c1noc(-c2ccccc2F)n1
    2	-3	-5	-5.9	0.9	1.6	-3	2	3	6
CCOc1ccccc1Oc1c(C)oc2cc(OC(=O)c3ccco3)ccc2c1=O
    -13	.	.	.	1.0	4.7	-2	11	-6	-6
CC(=O)c1cccc(NC(=O)N2CCCC2C(=O)Nc2cc(C)ccc2C)c1 (configuration not stated)
    5	.	.	.	-1.0	3.5	-3	-1	6	12
O=C(Nc1ccccc1)C(=O)Nc1ccccn1
    9	.	.	.	-7.6	4.7	-5	-9	-10	9
CCc1c(C(=O)Nc2ccccc2)c(C)[nH]c(=S)c1C#N
    -2	6	-5	-3.8	-0.8	-4.4	10	-6	26	1
O=C(O)CC(NS(=O)(=O)c1ccc2c(c1)OCCO2)c1ccccc1[N+](=O)[O-] (configuration not stated)
    -6	-1	4	-1.4	-0.1	-5.1	-11	6	.	.
CCOc1ccc(/C=N/NC(=O)c2ccccc2NC(=O)c2ccc(OC)cc2)cc1
    .	8	-1	24	-6.8	-0.9	-2	12	4	-6
CCS(=O)(=O)N1CCCC(C(=O)NCCc2ccc(C)cc2)C1 (configuration not stated)
    0	.	.	.	0.1	3.3	-8	-1	-1	-6
COc1cccc(NC(=S)NNC(=O)C(C)n2nc(C)c([N+](=O)[O-])c2C)c1 (configuration not stated)
    -2	.	.	.	0.6	-0.3	84*	-4	15	-7
COc1ccc(C(=O)Nc2ccccc2C(=O)NCc2ccco2)cc1OC
    -4	-17	-2	-6.4	0.2	0.2	0	2	21	3
Cn1c(SCc2nc(-c3ccc(Cl)cc3)no2)nnc1-c1cccs1
    -1	3	5	0.0	-0.3	-4.3	-8	-23	11	2
COC(=O)c1ccc(C)c(NC(=O)CCSc2ccc(Cl)cc2)c1
    -4	.	.	.	-0.5	-4.4	5	5	-5	3
COc1ccc(CC(=O)Nc2nc(-c3cccnc3)cs2)cc1
    -9	.	.	.	0.4	-2.0	32	-1	-9	14
Cc1ccc(CN2CCN(Cc3cn(C(C)C)c4ccccc34)CC2CCO)o1 (configuration not stated)
    -4	-2	-1	-2.9	1.4	-4.8	-7	6	1	14
CC1(C)Cc2c(c(-c3ccco3)nc3n[nH]c(N)c23)CO1
    5	.	.	.	0.3	-1.8	30	-5	?	1
CCOc1ccc(N(CC(=O)NC2CC3CCC2C3)S(=O)(=O)c2ccc(C)cc2)cc1 (configuration not stated)
    .	1	14	-3.5	-2.9	1.6	-23	-3	2	41
c1ccc2c(c1)CC1(CCCC1)N=C2N1CCOCC1
    -1	-6	7	-7.7	-0.4	-0.8	.	0	-2	-6
CN(C)Cc1c(C(=O)N/N=C/c2ccc(-c3ccccc3)cc2)nnn1-c1nonc1N
    -4	2	14	-1.6	-1.0	-0.5	-1	1	.	-3
COCCCN(C(=O)c1ccc(N2CCCC2=O)cc1)c1c(N)n(Cc2ccccc2)c(=O)[nH]c1=O
    2	6	7	-0.3	0.3	-6.0	1	-1	14	4
CC(=O)Nc1ccc(NC(=O)C(C)OC(=O)C2CCCCC2)cc1 (configuration not stated)
    -7	8	5	0.3	-0.5	7.6	-2	4	.	.
COCCCN(C(=S)Nc1cccc(Cl)c1)C(C)c1ccncc1 (configuration not stated)
    -10	-13	-10	-14	0.6	-3.4	-7	4	-1	0
COc1ccc(NC(=O)CCc2nc3ccccc3[nH]2)cc1
    -8	-6	2	1.6	1.9	5.7	-7	-17	-5	-17
COc1ccc(NC(=S)N2CCN(c3ccc([N+](=O)[O-])cc3)CC2)cc1OC
    3	-21	-17	-3.2	-0.7	8.8	-19	5	6	-15

# Compound activity from PubChem.
